# Screening results: PubChem BioAssay, several laboratories
# RecA splice inh – Mtb RecA intein splicing inhibition; P9WHJ3; cell-free RecA intein splicing, fluorescence; inhibition, %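 (about 9 µM by stock and volumes)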; actives 0.75% (n = 290,000); in the data active means inhibition above about 30%; inconclusive means no clear call, values can overlap the other calls;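 further: 0% = vehicle wells and 100% = reference inhibitor control wells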
# Target sequence (P9WHJ3 whole entry, looked up, canonical isoform): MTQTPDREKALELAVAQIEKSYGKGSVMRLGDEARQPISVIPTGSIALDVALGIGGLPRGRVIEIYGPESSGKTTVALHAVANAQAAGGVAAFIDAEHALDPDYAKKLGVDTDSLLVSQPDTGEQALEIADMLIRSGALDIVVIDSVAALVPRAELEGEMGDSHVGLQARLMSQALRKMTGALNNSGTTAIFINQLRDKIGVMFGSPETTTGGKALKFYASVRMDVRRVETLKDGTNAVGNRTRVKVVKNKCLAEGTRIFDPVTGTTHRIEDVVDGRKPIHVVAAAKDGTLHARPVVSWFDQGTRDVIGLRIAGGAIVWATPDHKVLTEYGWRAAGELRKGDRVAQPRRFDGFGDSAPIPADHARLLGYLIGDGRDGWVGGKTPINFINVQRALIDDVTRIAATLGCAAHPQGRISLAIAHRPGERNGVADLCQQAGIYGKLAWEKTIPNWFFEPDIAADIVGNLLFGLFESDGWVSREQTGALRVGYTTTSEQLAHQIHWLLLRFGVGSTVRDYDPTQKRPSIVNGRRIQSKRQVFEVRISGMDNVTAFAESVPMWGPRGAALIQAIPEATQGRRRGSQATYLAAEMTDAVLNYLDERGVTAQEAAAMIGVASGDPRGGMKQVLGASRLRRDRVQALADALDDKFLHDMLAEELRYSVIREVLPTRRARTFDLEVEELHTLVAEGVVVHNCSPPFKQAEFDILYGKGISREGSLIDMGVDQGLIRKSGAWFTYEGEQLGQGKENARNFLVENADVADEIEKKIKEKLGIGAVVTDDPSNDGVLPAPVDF
# Mtb betalactam – beta-lactam sensitization of Mtb H37Rv; M. tuberculosis H37Rv growth with meropenem, percent inhibition; hits of this screen are not shown here; inhibition, % at 25 µM; actives 0.27% (n = 330,000);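 active means about 74% or more and at least 40 points above the plate without the antibiotic, then above 30% in a dose series; inconclusive means first-round hits that could not be retested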;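 further: growth measured after seven days incubation then overnight dye step; 0% = bacteria only wells and 100% = bacteria with antibiotic; twin plates without the antibiotic show which effects depend on it; some results filed as inactive read as strong as hits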
# YopH inh – blocks Yersinia enterocolitica YopH tyrosine phosphatase. fluorescence Ex485/Em525. AID 898. actives 0.16% (n = 140,000). inhibition, %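 (about 10 µM by stock and volumes)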;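 active means inhibition of 50% or more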;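 further: controls were vehicle for no effect and minimum signal wells for full effect; inactives centre near -20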
# Arbovirus anti – blocks arbovirus infection | arbovirus infection cell-based antiviral screen | inhibition, % at 10 µM | actives 0.37% (n = 200,000) | AID 1251;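 active means inhibition from about 30%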;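 further: bluetongue infection of BSR cells; cell survival read as ATP light after 72 h; 0% = infected wells without compound and 100% = uninfected wells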
# Mtb growth – M. tuberculosis H37Rv growth inhibitors, H37Rv strain (AID 1626). inhibition, % at 10 µM; hits with a dose series show IC50 in µM. actives 0.95% (n = 220,000). M. tuberculosis H37Rv growth inhibition; higher % means a stronger effect;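 active means confirmed in a dose series; inconclusive means inhibition above 80% but not taken into the dose series; inactive means below 80% or under 30% at every dose of the series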;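 further: bacteria incubated seven days before Alamar blue readout; 0% = bacteria only wells and 100% = bacteria with antibiotic wells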
# Arbovirus anti repeat – recorded beside Arbovirus anti, whose call it bears; inhibition, %; measured here: 10K subset replicate screen; many hits read low in the repeat;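 first of two repeat runs on a subset; 0% = infected and 100% = uninfected wells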
# Active calls of the source: *; ? = inconclusive; . = not tested or not shown.
SMILES,RecA splice inh,Mtb betalactam,YopH inh,Arbovirus anti,Mtb growth,others
CCCN(CCC)S(=O)(=O)c1ccc(NC(=O)c2cc(C(=O)OC)cc([N+](=O)[O-])c2)cc1,3.0,-12,-21,11,-4%,
O=C1CSC(c2ccccn2)N1c1ccccc1 (configuration not stated),0.8,-11,0,6,-11%,
CCCN1C=CC(=C/C=C(\C#N)C(=O)OCC)C=C1,-10,-1,-155,2,-3%,
O=C(CN1CCN(Cc2ccccc2Cl)CC1)N/N=C/c1cccs1,2.2,-10,.,.,0%,
O=C(NCc1ccc2c(c1)OCO2)c1cc(-c2ccccc2)nn1CC1CC(c2cccnc2)=NO1 (configuration not stated),-4.6,1,.,.,-6%,
Cc1ccc(C(=O)Nc2nc(-c3ccccc3)c(-c3ccccc3)o2)cc1,16,97,-24,-7,?,
CCC(=O)c1ccc(OCC(O)CNCc2ccc(F)cc2)cc1 (configuration not stated),-1.7,-1,-16,-1,-3%,
S=C(NCC1CCCCC1)Nc1cccnc1,5.7,-4,-9,2,0%,
O=C(Nc1cccc(C(=O)NC2CCCCC2)c1)c1ccccc1,-1.6,3,.,.,.,
COc1ccccc1OCCNC(=O)C1CCN(C(C)=O)CC1,0.3,-3,.,.,.,
CN1CCN(/N=C/c2c(O)n(Cc3ccc(F)cc3)c(=O)[nH]c2=O)CC1,-1.3,1,.,.,0%,
COc1ccc(C2CC(=O)c3cnn(-c4nc(C)cc(C)n4)c3C2)cc1OC (configuration not stated),1.7,-7,.,.,5%,
S=C(NCCCN1CCOCC1)Nc1ccc(Cl)c(Cl)c1,-1.1,-8,-16,-1,5%,
O=c1oc2ccccc2cc1-c1csc(NN=C2CCCCC2)n1,-3.4,-2,-49,-21,-1%,
Nc1cc(Cl)ccc1N1CCCCC1,.,-4,.,-1,-2%,

# Next section, starting with the last 3 of the part before.
SMILES,RecA splice inh,Mtb betalactam,YopH inh,Arbovirus anti,Mtb growth,others
S=C(NCCCN1CCOCC1)Nc1ccc(Cl)c(Cl)c1,-1.1,-8,-16,-1,5%,
O=c1oc2ccccc2cc1-c1csc(NN=C2CCCCC2)n1,-3.4,-2,-49,-21,-1%,
Nc1cc(Cl)ccc1N1CCCCC1,.,-4,.,-1,-2%,
Cc1ccc(C(=O)N(CC(=O)NC2CCCC2)c2ccccc2Cl)s1,-1.7,-6,.,.,.,
Cc1cccc(NC(=O)CSc2nc3c(c(=O)[nH]2)CCCC3)c1C,-1.2,20,-7,6,1%,
COc1cccc(/C=C/c2nc3c(cnn3-c3ccccc3)c(=O)[nH]2)c1,-1.6,4,.,-10,-2%,
CC1=CC(c2ccc(Cl)cc2)n2nc(NC(=O)CCCC(=O)O)nc2N1 (configuration not stated),-16,-8,.,.,.,
CNc1cc([N+](=O)[O-])ccc1N/C=C/C(=O)c1ccc2c(c1)OCO2,2.8,5,0,5,10%,
CN(NC(=O)c1c(Cl)cccc1Cl)c1cccc(Cl)n1,1.0,.,.,21,-6%,
Cc1ccc(S(=O)(=O)N(C)C)cc1NC(=O)C(C)N(C)Cc1sccc1C (configuration not stated),2.5,-1,.,.,.,
CS(=O)(=O)N(CC(=O)N1CCOCC1)c1ccc2c3c(cccc13)CC2,-0.9,4,-4,10,-4%,
CCOc1ccc(NC(=S)N2CCN(C/C=C/c3ccccc3)CC2)cc1,.,-1,.,2,9%,
CC1CCc2nc(N)c(C#N)c(-c3cccnc3)c2C1 (configuration not stated),1.1,-6,-21,26,0%,
CN(Cc1ccccc1)Cc1c(F)cccc1F,-8.8,-5,-17,8,-4%,
CCc1nnc(NC(=O)c2cccc(S(=O)(=O)N3CCCCC3)c2)s1,-0.3,-16,.,.,.,
CCc1ccc(N(CC(=O)NC2CCCCC2)S(=O)(=O)c2c(C)noc2C)cc1,.,-2,.,-2,-3%,Arbovirus anti repeat=-1
COC(=O)c1ccc(NC(=O)CNC(=O)C2CCCCC2)cc1,.,-1,-1,-3,-6%,Arbovirus anti repeat=2
COc1ccc(OC)c(/C=N\NC(=O)c2c(C)nc3cc(C)ccn23)c1,-0.2,-5,.,.,.,

# Quoted at random: 2 compounds from above.
SMILES,RecA splice inh,Mtb betalactam,YopH inh,Arbovirus anti,Mtb growth,others
COc1ccc(OC)c(/C=N\NC(=O)c2c(C)nc3cc(C)ccn23)c1,-0.2,-5,.,.,.,
COC(=O)c1ccc(NC(=O)CNC(=O)C2CCCCC2)cc1,.,-1,-1,-3,-6%,Arbovirus anti repeat=2

# More records follow.
SMILES,RecA splice inh,Mtb betalactam,YopH inh,Arbovirus anti,Mtb growth,others
O=C1NC(c2ccccc2)(C(F)(F)F)C(=O)N1Cc1cccnc1 (configuration not stated),3.4,-9,-31,4,3%,
COc1ccc(OC)c(NC(=O)CSc2nnc(CNC(=O)COc3ccc(Cl)cc3)o2)c1,1.3,4,-46,2,-6%,
O=C(NC1CCCC1)c1ccc(CS(=O)(=O)Cc2ccccc2Cl)o1,1.7,-6,.,.,.,
CSc1nnc2c(n1)OC(C)=Nc1ccccc1-2,3.5,-16,6,6,10%,
CC(=O)Nc1cc(C(=O)N2CCC3(CC2)OCCO3)ccc1S(=O)(=O)c1ccc(Cl)cc1,-0.6,-7,-6,-2,0%,
O=C(CN1CCCCC1)Nc1cccc(Cl)c1Cl,-0.4,-9,0,1,3%,
[O-]C1=N/[N+](=C/c2ccccc2)CC1,81*,-2,.,.,.,
CCC(=O)c1ccc(OCC(O)CNC2CCCC2)cc1 (configuration not stated),-1.0,-7,.,.,.,
CCN(CC)CCNc1nc(SC)nc2sc3c(c12)CCN(C)C3,-5.5,-1,.,.,.,
CCCCN=CC1=C(O)CC(c2ccccc2)CC1=O (configuration not stated),2.0,4,.,1,2%,
CC1=C(C(=O)N2CCOCC2)C(c2c(F)cccc2F)NC(=O)N1 (configuration not stated),-3.0,-3,.,1,-3%,
O=Cc1ccccc1Oc1nc(N2CCOCC2)nc(N2CCOCC2)n1,-1.8,-1,.,1,1%,
COc1cccc(C(=O)NCC2CCCN2S(=O)(=O)c2ccccc2)c1 (configuration not stated),2.0,-5,.,.,.,
O=C(NNC(=S)Nc1cccc(Cl)c1)c1ccccc1,4.9,-3,.,.,.,
COc1ccc(-n2nc(C(=O)NCC(=O)NCc3ccc(F)cc3)c3ccccc3c2=O)cc1OC,-2.0,2,.,.,.,

# Sorted by formula weight (high to low): part of the list above.
SMILES,RecA splice inh,Mtb betalactam,YopH inh,Arbovirus anti,Mtb growth,others
O=C(NC1CCCC1)c1ccc(CS(=O)(=O)Cc2ccccc2Cl)o1,1.7,-6,.,.,.,
CC1=C(C(=O)N2CCOCC2)C(c2c(F)cccc2F)NC(=O)N1 (configuration not stated),-3.0,-3,.,1,-3%,
O=C(NNC(=S)Nc1cccc(Cl)c1)c1ccccc1,4.9,-3,.,.,.,
CCC(=O)c1ccc(OCC(O)CNC2CCCC2)cc1 (configuration not stated),-1.0,-7,.,.,.,

# More entries follow:
SMILES,RecA splice inh,Mtb betalactam,YopH inh,Arbovirus anti,Mtb growth,others
CCOc1ccccc1CN1CCCC(C(=O)Nc2cccc(-n3cccn3)c2)C1 (configuration not stated),1.1,9,.,.,.,
COCCNc1nnc(Cc2ccc(Cl)cc2)c(=O)[nH]1,0.4,-3,.,.,.,
Cc1sc2ncnc(N3CCN(S(=O)(=O)c4ccc(F)cc4)CC3)c2c1C,0.9,-1,.,.,.,
c1ccc(OCCN2CCN(Cc3nc(-c4ccc5c(c4)OCO5)no3)CC2)cc1,-1.7,9,.,-1,10%,
COC(=O)c1sc(NC(C)=O)c(C(=O)OC)c1C,-1.2,-16,-36,0,-6%,
COc1ccc(OC)c2c1sc(=NC(=O)C(C)(C)C)n2C,-7.6,0,-35,2,.,Arbovirus anti repeat=-7
O=C(CN1CCN(c2ccccc2)CC1)Nc1ccc(-n2cnnn2)cc1,-1.1,12,-30,5,-3%,
CC(C)(C)C(O)C(Cc1ccccc1Cl)n1cncn1 (configuration not stated),1.4,-1,.,.,.,
CCCN1CCN(CCCNC(=O)c2ccc3c(=O)n(CCc4ccccc4)c(=O)[nH]c3c2)CC1,-3.5,3,.,.,.,
CCCn1ncc(CN2CCN(CCc3ccccc3)C(CCO)C2)c1C (configuration not stated),0.8,-13,.,-4,4%,
COc1ccc(CCNC(=O)C2CC(=O)N(CCc3ccccc3)C2)cc1OC (configuration not stated),-6.8,1,.,4,2%,
C=CCOc1cccc(CNCc2ccncc2)c1,-0.2,5,.,.,.,
CCN1CCN(c2cc(C)c3cc(NC(=S)NCCN(C)C)ccc3n2)CC1,-1.9,-3,.,.,.,
O=C(NC1CCN(Cc2ccccc2)CC1)c1ccccc1OCc1ccccc1,3.1,7,.,.,.,
CCN=c1scc(-c2ccc3c(c2)NC(=O)CO3)n1N=C1CCCC1,0.0,18,-24,-9,4%,
CCn1c(SCC(=O)NCc2ccc3c(c2)OCO3)nnc1-c1ccncc1,-6.6,-2,.,1,-8%,
COc1ccc(-n2c(=O)c3c4c(sc3n(CC(=O)Nc3cc(C)[nH]n3)c2=O)CCCC4)c(OC)c1,3.6,8,.,2,-5%,
CCOP(=O)(OCC)C(NC(=O)c1ccc(OC)cc1)c1ccccc1 (configuration not stated),1.2,-8,.,1,2%,
N#C/C(=C\c1ccc(O)c(Br)c1)C(=O)N1CCCCC1,3.7,0,.,.,.,
COc1ccccc1NC(=O)c1ccc(-n2cccn2)c([N+](=O)[O-])c1,2.2,-7,.,3,15%,
CC[C@@H]1[C@H]2CCCC(=O)N3CC[C@@H](C[C@@H]1Nc1ccccc1)[C@@H]23,1.0,-4,.,.,.,
OC1CCC(NC(=S)Nc2ccc(SC(F)F)cc2)CC1 (configuration not stated),0.9,-1,.,-6,-1%,
O=C(NCCCN1CCOCC1)c1ccc(Cl)s1,-0.4,-4,-20,6,2%,
C[C@@H]1[C@H]2[C@@H](O[C@@H]3O[C@H](CO)[C@@H](O)[C@H](O)[C@H]3O)OC=C(C(=O)O)[C@H]2C[C@@H]1O,-2.4,2,.,.,.,
CCOC(=O)C[C@H]1c2cc(F)ccc2S(=O)(=O)N1c1ccccc1,1.5,-6,.,.,7%,
O=C(Nc1cc(Sc2nc3ccccc3s2)cc([N+](=O)[O-])c1)c1cccc(F)c1F,4.6,1,-3,12,0%,
CCc1cc2ccc(C)c(C)c2nc1SCC(=O)Nc1cc(C)on1,-1.0,1,.,.,.,
Cc1cc(C)nc(-n2ncc3c2CC(c2ccccc2)CC3=O)n1 (configuration not stated),2.4,3,-38,8,5%,
CCOC(=O)N1CCN(C(=O)C2CC(=O)N(c3ccccc3)C2)CC1 (configuration not stated),8.9,2,.,.,.,
CN(C)c1ccc(C(=O)C(O)c2ccccc2)cc1 (configuration not stated),.,8,45,-6,6%,
CCC(C)c1ccccc1NC(=O)C(C)NCCN(C)C (configuration not stated),0.5,-4,.,.,-3%,
CCOc1nc(NCc2ccco2)nc(Nc2ccc(OC)cc2)n1,0.0,7,-31,-9,5%,

# Only part of the results is shown; rates above refer to the full screens.
